D2 agonist = human D2 receptor agonism in beta-arrestin assay; P14416; activation, % (test concentration not listed); 360,000 tested, 0.084% active; DiscoveRx PathHunter D2 beta-arrestin, luminescence, 90 min; 100% = 57 uM dopamine signal; AID 624465; in the data active = activation above about 40%; inconclusive = about 15% to 40%; inactive = below about 15%; note: compound concentration not given in the record; the text of the record calls up to 30% inactive
Target sequence (P14416 whole entry, looked up): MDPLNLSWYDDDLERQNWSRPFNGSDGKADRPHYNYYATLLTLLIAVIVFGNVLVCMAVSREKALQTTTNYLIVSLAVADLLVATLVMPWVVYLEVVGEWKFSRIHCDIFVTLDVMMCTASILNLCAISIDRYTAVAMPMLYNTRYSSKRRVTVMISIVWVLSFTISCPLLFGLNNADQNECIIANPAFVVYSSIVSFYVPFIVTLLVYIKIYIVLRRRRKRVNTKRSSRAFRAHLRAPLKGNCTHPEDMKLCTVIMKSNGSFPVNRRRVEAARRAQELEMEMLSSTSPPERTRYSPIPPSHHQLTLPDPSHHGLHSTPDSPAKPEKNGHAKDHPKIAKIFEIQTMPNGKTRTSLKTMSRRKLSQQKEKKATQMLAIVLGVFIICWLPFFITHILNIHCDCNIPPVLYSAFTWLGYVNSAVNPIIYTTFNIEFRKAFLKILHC
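DiscoveRx PathHunter D2 beta-arrestin cells (2,100/well) attached overnight, then compound-stimulated 90 min at 37 C in HBSS/10 mM HEPES/0.1% Tween-20 buffer; beta-galactosidase complementation read by luminescence after 1 h at ambient temperature. Dopamine 57 uM final (EC100) as control.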
PINK1 expr mod = changes PINK1 expression. 410,000 tested, 0.2% active. PINK1 immunofluorescence, high-content cytometry, 24 h. Potency, µM (top dose mostly 76.6 µM), inactives show top-dose activation (PINK1 increase), usual class: activators; active = well fitted activation curve with a large enough effect; inconclusive = small, poorly fitted or top-dose-only effect; inactive = flat fitted curve, though single readings scatter; cell line not stated here;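 note: potency is the fitted concentration of half-maximal effect; % of control where 0% means no effect; nearly all actives have a fitted effect of over 65% in size; a mitochondrial uncoupler was the plate control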
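PINK1 protein, normally rapidly degraded, was detected by immunofluorescence after 24 hour compound treatment of a stable cell line. Titration data (5 concentrations) came from laser-scanning cytometry, with CCCP-treated wells as controls.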
Menin-MLL FL inh = menin-MLL binding inhibition, fluorescein peptide | Fluorescence polarization, fluorescein-MLL peptide displacement from menin | FP activity change, % at 61.4 µM | 290,000 tested, under 10 active | AID 1766; inconclusive = falling polarisation curve, or a change in total fluorescence; inactive = total fluorescence flat and polarisation flat or rising; no compound was filed as active; the % refers to the polarisation; negative = inhibition;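 note: % of control where 0% means no effect; inhibitors lower the polarisation; unlabelled MLL peptide was the positive control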
gsp agonist = gsp mutant agonism; AID 624287; gsp mutant cells, cAMP HTRF, 30 min; control for the full effect not named in the record; Potency, µM (doses to about 76.9 µM), for the others: at the highest dose activation (cAMP increase), most hits filed as activators; 340,000 tested, 0.13% active; active = well fitted activation curve with a large enough effect; inconclusive = small, poorly fitted or top-dose-only effect, or another doubt; inactive = no such curve, though single readings can be large or run the other way; cell line not stated here;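 note: phosphodiesterase inhibitor Ro 20-1724 added with compounds to block cAMP breakdown; potency is the fitted concentration of half-maximal effect; nearly all actives have a fitted effect of over 60% in size; about a fifth of the inactives were tested at one dose only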
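Cells stably selected in G418 were plated at 2000/well, grown 16-24 hr, then given compounds in DMSO with the PDE inhibitor […] (300 uM solution added) for 30 min at 37C; cAMP was read by HTRF.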
ClpP mod = qHTS Assay for Activators of ClpP; ATP-dependent Clp protease proteolytic subunit (Bacillus subtilis (strain 168)), P80244; purified B. subtilis ClpP, FRET peptide cleavage, 20 min; Potency, µM (titrated, usually from 57.5 µM), inactives show at the top dose activity change, negative = active; 340,000 tested, 1.9% active; AID 651965, 2013; active = well fitted falling curve with a large enough effect; inconclusive = small, poorly fitted or top-dose-only effect; inactive = no such curve, though single readings can be large or run the other way; note: potency is the fitted concentration of half-maximal effect; the source files actives as falling curves though it sought activators and does not explain the sign; nearly all actives have a fitted effect of over 65% in size; many hits overshoot -100%
Target sequence (P80244 whole entry, looked up): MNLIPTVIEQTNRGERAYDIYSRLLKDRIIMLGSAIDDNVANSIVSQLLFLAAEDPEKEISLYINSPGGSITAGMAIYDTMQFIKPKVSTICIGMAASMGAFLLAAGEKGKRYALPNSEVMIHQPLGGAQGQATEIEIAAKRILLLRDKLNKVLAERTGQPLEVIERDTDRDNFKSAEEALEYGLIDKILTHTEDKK
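ClpP 10 microg/mL final, pH 8 Tris/KCl buffer with BSA, glycerol, Tween-20; compound pinned in; FRET-FV substrate; RT 20 min; Ex320/Em430; ΔFRET vs ADEP 5.8 microM, DMSO, no enzyme.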
Sfp PPTase inh = Sfp phosphopantetheinyl transferase inhibition | Q9F4F7 | Biochemical Sfp PPTase activity, qHTS | Potency, µM, for inactives: max response, negative = inhibition, actives largely listed as inhibitors | 310,000 tested, 3.5% active | AID 1490; active = well fitted inhibition curve with a large enough effect; inconclusive = small, poorly fitted or top-dose-only effect, or another doubt; inactive = no such curve, though single readings can be large or run the other way;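 note: the enzyme is Sfp with the accession as filed and its product quenches rhodamine fluorescence; potency is the fitted concentration of half-maximal effect; 0% = enzyme reaction without inhibitor and -100% = no enzyme wells; top concentration of the series not given in the record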
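Buffer: 50 mM Hepes-Na pH 7.6, 10 mM MgCl2, 0.01% Nonidet P-40, 0.01% BSA. Enzyme 15 nM, pre-exposed to compound 15 min; substrates then added and fluorescence change tracked over 30 min.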
gsp antag = antagonists of gsp mutant (McCune-Albright syndrome). gsp-mutant cells, cAMP HTRF, 30 min; control for the full effect not named in the record. 340,000 tested, 0.4% active. Potency, µM (series often up to 76.9 µM), without a hit: top-dose activity change, negative = inhibition, hits mostly inhibitors. AID 624288; active = falling curve of any shape with a large fitted effect; inconclusive = falling curve, mostly with a smaller effect; inactive = flat or rising curve; cell line not stated here;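 note: intracellular cAMP measured with PDE inhibitor Ro 20-1724 present during compound exposure; potency is the fitted concentration of half-maximal effect; % is set by controls: 0 for no effect and ±100 for the full control effect; nearly all actives have a fitted effect of over 65% in size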
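HTRF cAMP read-out (cAMP-d2 plus anti-cAMP antibody-K in lysis buffer, 30 min RT). Before lysis, cells are exposed to compounds with […] for 30 min at 37C in DPBS containing Ca/Mg, BSA and Tween 20.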
* hit, by the source's call; ? = inconclusive; . = no result given; & = joins results of further samples; [ ] = remark or other dose.

SMILES	D2 agonist	PINK1 expr mod	Menin-MLL FL inh	gsp agonist	ClpP mod	Sfp PPTase inh	gsp antag
CC(OC(=O)[C@@H](NC(=O)OCc1ccccc1)C(C)C)C(=O)Nc1ccc(N2CCOCC2)cc1 (stereo partly specified)	1.2	-0.2%	.	19%	-0.3%	.	?
CC(C)(C)n1nnnc1C(c1ccccc1)N1CCc2ccccc2C1 (stereo unspecified)	2.7	10%	2.4	-4%	-4.7%	4%	-1%
O=C(CN1C(=O)S/C(=C\c2cccc(Cl)c2)C1=O)NCCCn1ccnc1	5.6	-0.5%	.	-1%	1.7%	-7%	9%
Cc1cc(-n2ccc(=O)[nH]c2=O)nc(-c2ccccc2)n1	-2.0	-0.8%	-3.2	-28%	0.0%	7%	-4%
O=C(CCOc1ccccc1)N1CCCC(Nc2ccccc2)C1 (stereo unspecified)	-2.7	1.0%	.	-21%	-0.7%	.	.
COc1cccc(C(=O)N2CCC(n3nccc3NC(=O)CCOc3ccccc3)CC2)c1	-3.6	-0.5%	6.2	-3%	-0.8%	11%	-15%
O=C(CCC(=O)Nc1ccc(F)cc1)N/N=C/c1ccc(F)cc1	-4.3	0.5%	-11	-71%[inhibitor]	-1.1%	8%	6%
O=C(CC1C(=O)NCCN1C/C=C/c1ccccc1)NCCc1cnccn1 (stereo unspecified)	-4.3	0.9%	.	?	-6.9%	9%	9%
CN1CCN(c2ncc3ncc(=O)n(CCc4ccccc4)c3n2)CC1	.	-0.3%	-2.9	.	.	23%	.
COc1cccc(/C=C2/CN(C)CC3=C2OC(N)=C(C#N)C3c2cccc(OC)c2)c1 (stereo unspecified)	-2.2	6.8%	?	-6%	-5.5%	-5%	-1%
COc1ccc(NC(=O)CSc2nncs2)cc1OC	-2.6	2.9%	4.0	-2%	-2.8%	15%	5%
O=C(CC1C=Cc2ccccc2N1C(=O)c1ccccc1)c1ccccc1 (stereo unspecified)	14	0.1%	5.7	?	-3.3%	-7%	?
CCN1/C(=C/c2ccc3cccc(C)c3[n+]2CC)Sc2ccccc21	-6.6	4µM*	?	?	-0.5%	8.9µM*	-26%
Cc1ccc(S(=O)(=O)N2CCCC2C(=O)O)cc1 (stereo unspecified)	-2.9	-2.1%	-1.6	-18%	0.2%	9%	9%
COc1ccc(OCC(O)Cn2c(=N)n(CCN3CCCCC3)c3ccccc32)cc1 (stereo unspecified)	-1.7	1.7%&0.1%	-2.4	6%	-0.8%&0.0%	10%	11%
CCOC(=O)c1cnc2ccc(OCC)cc2c1NCc1cccnc1	1.7	2.1%	-0.6	-9%[15.4 µM]	?	-18%	?
O=c1c(-c2ccccc2)coc2c(CN3CCCC3)c(O)ccc12	-3.3	6.5%[38.3 µM]	0.4	-2%	28µM*	15%	-21%
O=C(c1ccc2ccccc2n1)N1CCN(Cc2c(F)cccc2Cl)CC1	0.9	-2.5%	4.5	20%	.	21%	10%
C=C1C(=O)[C@]23C[C@H]1CC[C@H]2[C@]1(C)[C@@H](OC(C)=O)CC[C@@](C)(C(=O)O)[C@H]1C[C@@H]3O	-10	2.1%	.	.	-1.6%	.	.
O=C(Cc1ccc(F)cc1)Nc1ccc(F)c([N+](=O)[O-])c1	-2.2	-1.5%	1.7	-12%	1.0%	11%	-6%
COc1ccc(-c2cc(=O)c3ccccc3[nH]2)cc1	1.3	-0.6%	1.8[94.6 µM]	.	3.6%	10%&29%	2%
CCCOC(=O)c1c(NC(=O)CSc2nc(-c3ccco3)cc(C(F)(F)F)n2)sc(C(=O)OC)c1C	-1.4	4.7%[38.3 µM]	9.3	-42%	-19%	?	6%
Cc1cccc(NC(=O)c2cccc(C(=O)Nc3cccc(C)c3)n2)c1	0.8	7.2%	.	-4%	.	.	0%
COc1cc2c(cc1NC(=O)CSCC(=O)O)oc1ccccc12	-3.7	-0.8%	0.5	0%	-1.8%	-9%	?
CN(C(=O)c1ccc(N2CCCCC2)c([N+](=O)[O-])c1)C1CCS(=O)(=O)C1 (stereo unspecified)	2.0	1.1%	.	19%	.	.	-3%
Cc1ccc(-c2csc(=S)[nH]2)cc1	-5.0	-1.3%	-7.5	0%	2.1%	35µM*	?
CC1CCCCN1CCNC(=O)C1CC(=O)N(c2ccc(F)c(Cl)c2)C1 (stereo unspecified)	-2.2	-2.2%	6.1	31%	0.8%	3%	9%
CCN(CC)S(=O)(=O)c1ccc(C(=O)NCc2ccc3c(c2)OCO3)cc1	-2.9	-0.1%	1.0	12%[15.4 µM]	.	5%	1%
COc1ccc(S(=O)(=O)Nc2cccc3c2O[C@H](CN(C)Cc2ccccc2)[C@@H](C)CN([C@H](C)CO)C3=O)cc1	2.2	-1.7%	.	?	-5.5%	.	-6%
O=C(N/N=C\c1ccc2c(c1)OCO2)c1ccc(Cn2cc(Br)c([N+](=O)[O-])n2)o1	6.0	2.7%	-3.1	-37%[inhibitor]	.	?	5%
Cc1cccc(CN2CCC(C(N)=O)CC2)c1	-0.6	.	0.0	-33%[inhibitor]	1.5%	9%	5%
CC(C)(C)NC(=O)Cc1ccc(Cl)c(Cl)c1	5.1	2.2%	-0.5	13%	.	16%	0%
N#Cc1ncc(C(F)(F)F)cc1Sc1ccc(N)cc1	-2.2	2.6%	0.1	0%	-7.6%	3%	-3%[15.4 µM]
CCn1c(=O)c([N+](=O)[O-])c(NCCN(C)C)c2ccccc21	4.7	2.0%	-3.4	-14%	0.5%	3.5µM*	4%
C=CCNC(=O)C(C)Sc1ccc(Cl)cc1 (stereo unspecified)	-1.1	0.6%	0.1	7%	-2.3%	-10%	0%
CC1CCCN(CCCNC(=O)C2CC(=O)N(CCc3ccccc3)C2)C1 (stereo unspecified)	1.4	1.7%	0.4	-18%	0.0%	15%	17%
O=S(=O)(c1cccc2cccc(Cl)c12)N1CCCC1	-1.9	-0.5%	0.2	-8%	1.8%	8%	-8%
COc1ccccc1C(C)NCC(=O)Nc1ccccc1C(F)(F)F (stereo unspecified)	-0.7	3.9%	4.5	?	18µM*	-19%	-5%
CC1(Cc2cc(Cl)ccc2C(F)(F)F)C(=O)Nc2cc(-c3ccccc3Cl)ccc21 (stereo unspecified)	-2.4	0.5%	.	.	-0.1%	.	.
Cc1ccc(CNS(=O)(=O)c2cc(F)ccc2CN2C(=O)c3cccnc3C2=O)o1	-1.8	-0.1%	1.1	?	0.3%	5%	-7%

The closing two records of the part above open the next one.
SMILES	D2 agonist	PINK1 expr mod	Menin-MLL FL inh	gsp agonist	ClpP mod	Sfp PPTase inh	gsp antag
CC1(Cc2cc(Cl)ccc2C(F)(F)F)C(=O)Nc2cc(-c3ccccc3Cl)ccc21 (stereo unspecified)	-2.4	0.5%	.	.	-0.1%	.	.
Cc1ccc(CNS(=O)(=O)c2cc(F)ccc2CN2C(=O)c3cccnc3C2=O)o1	-1.8	-0.1%	1.1	?	0.3%	5%	-7%
CC(=O)Cc1nsc(NC(=O)c2ccc(COc3ccc(C)cc3)o2)n1	-2.3	-0.7%	1.2	-71%[inhibitor]	-5.6%	8%	?
CCn1ccnc1CNC(=O)CC1C(=O)NCCN1CCCc1ccccc1 (stereo unspecified)	-2.0	-0.7%	.	5%	-4.5%	11%	1%
CCCC1=[N+](CC(=O)c2ccc(Br)cc2)CCn2cccc21	-5.4	3.7%	?	-2%[15.4 µM]	.	17%	9%
CCOc1ccc(OCC)c(NC(=O)CSc2nc3ccccc3c(=O)n2C)c1	-1.1	4.5%	1.9	-28%	3.5%	-4%	?
COc1ccccc1CN1Cc2cccc3c2[C@@H](CC1=O)[C@H](O)[C@H](O)C3	-2.1	0.1%	.	.	-1.7%&-1.4%	.	14%
Cc1cc(C(=O)NC2CCCc3c2cnn3-c2cccc(C)c2C)n(C)n1 (stereo unspecified)	2.7	2.7%	1.8	?	0.0%	11%	?
O=C(CSc1nnc(-c2ccco2)n1CC1CCCO1)c1ccccc1 (stereo unspecified)	-0.9	-0.2%	3.8	1%	-3.3%	50µM*	-7%
Cc1ccccc1CN1CCN(C(=O)c2cccc(F)c2)CC1	-2.6	-0.9%	-0.1	25%	1.2%	?	-4%
C[C@]12C(=O)N(c3ccc(Br)cc3)C(=O)N1[C@@H]1c3ccccc3OC[C@@H]1[C@H]2c1ccccc1	-1.7	0.3%	0.4	-1%	-2.6%	-2%	3%
O=C1c2ccccc2C(=O)N1c1ccccc1S(=O)C(F)(F)F (stereo unspecified)	0.6	1.5%	-7.5	1%	-3.1%	-8%	0%
O=S(=O)(N/N=C1/CC(c2ccccc2)Oc2ccccc21)c1ccccc1 (stereo unspecified)	4.1	2.4%	.	9%	.	.	?
CCCc1nc2ccc(C)cn2c1Cc1cccc(Cl)c1	-2.3	?	.	.	5.4%	.	.
CN(C)C(=O)CSc1nc2ccccc2c(=O)[nH]1	-4.0	-1.2%	-1.8	-35%[inhibitor]	-2.3%	0%	-4%
O=C(Nc1cccnc1)C1(F)C(F)(F)C(F)(F)C(F)(F)C(F)(F)C1(F)F	1.3	-0.5%	4.7	-27%	-2.8%	29%	4%
O=C(COC(=O)c1cc(=O)[nH]c2ccccc12)NCc1cccs1	1.0	-1.9%	-0.7	-32%[15.4 µM]	.	13%	11%
CCn1c(C)nc2cc(C(=O)N/N=C/c3cccc(OC)c3O)ccc21	-6.9	0.9%	11	-7%	.	22%	-27%
Cc1ccc(C2C=NN(c3ccccc3)C2=O)cc1 (stereo unspecified)	-5.2	3.0%	0.2	-68%[inhibitor]	-13%	-8%	-6%
CC(C)(C)c1ccc(NC(=O)COC(=O)C2=COCCO2)cc1	-2.3	-1.1%	-1.1	-21%	-1.0%	15%	-11%
CCCNC(=O)C1(C)CCCN(C(=O)c2ccc(OC(F)F)cc2)C1 (stereo unspecified)	-1.4	0.0%	.	.	-1.2%	.	.
O=C(NC1CCCc2ccccc21)c1n[nH]c(=O)c2ccccc12 (stereo unspecified)	-1.9	2.7%	-4.7	-2%[15.4 µM]	.	17%	5%

Screening results from PubChem BioAssay.
